Screening results: PubChem, National Center for Advancing Translational Sciences (NCATS)
miR-21 reporter = raises the signal of a miR-21 reporter | 340,000 tested, under 10 active | Potency, µM (titrated, usually from 38.3 µM), without a hit: at the highest dose reporter change, positive = more light | HeLa miR-21 FLuc reporter, luciferase, 48 h; active = well fitted rising curve with a large enough effect; inconclusive = small, poorly fitted or top-dose-only effect; inactive = no such curve, though single readings can be large or run the other way;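 also: % of control where 0% means no effect; miR-21 action dims this reporter so a rising signal means less miR-21 action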
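HeLa miR-21-FLuc reporter line, endogenous miR-21; 2000 cells/well in DMEM/10% FBS; compound titration up to ~40uM final, 48 h, 37 degree Celsius; luciferase detection reagent, 15 min lysis, CCD luminescence.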
GLA inh pH 4.5 = blocks human alpha-galactosidase A at pH 4.5; purified enzyme, 4-MU-alpha-Gal fluorescence, pH 4.5; 230,000 tested, under 10 active; activity change, negative = inhibition, % at 105 µM; inconclusive = small, poorly fitted or top-dose-only inhibition, or a rising curve; inactive = flat fitted curve, though single readings scatter; no compound was filed as active;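 also: 0% = full activity with enzyme and -100% = basal without enzyme; dose as in the result columns while the protocol names 77 µM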
Target sequence (P06280 whole entry, looked up): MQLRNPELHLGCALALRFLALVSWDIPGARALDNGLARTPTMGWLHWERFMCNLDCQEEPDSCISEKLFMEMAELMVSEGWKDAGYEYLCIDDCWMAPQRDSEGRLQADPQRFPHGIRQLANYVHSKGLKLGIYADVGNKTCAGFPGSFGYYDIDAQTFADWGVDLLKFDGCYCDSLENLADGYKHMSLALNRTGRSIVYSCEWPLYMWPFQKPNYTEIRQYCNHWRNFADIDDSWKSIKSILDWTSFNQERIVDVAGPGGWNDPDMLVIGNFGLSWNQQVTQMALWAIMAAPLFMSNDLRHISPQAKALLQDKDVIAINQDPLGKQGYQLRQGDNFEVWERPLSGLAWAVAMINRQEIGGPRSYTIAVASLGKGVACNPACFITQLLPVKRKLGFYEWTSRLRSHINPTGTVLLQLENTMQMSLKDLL
Rango complex inh = Rango-importin beta binding inhibition | Q14974 | Rango CFP/YFP FRET sensor + importin beta, 45 min | Potency, µM (top dose mostly 92.2 µM), for inactives: at the highest dose inhibition of complex formation | 340,000 compounds, 0.031% hits | AID 540263; active = rising FRET ratio curve, often small or poorly fitted; inconclusive = mostly compound fluorescence or quenching in the first reads; inactive = flat curves in all reads;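 also: potency is read from the fitted curve at half-maximal effect; 0% = DMSO wells and 100% = buffer wells lacking importin beta; nearly all actives have a fitted effect of over 15% in size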
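FRET biosensor (snurportin 1 IBB flanked by EYFP and cerulean), 50 nM, with compound 5 min, then 0.125 microM importin beta in PBS, 1 mM DTT, 0.02% Tween-20, 0.1% BSA. CFP/YFP ratio read after 45 min at room temperature; pre-read flags interference.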
Rango release inh = inhibition of RanGTP-driven Rango-importin beta dissociation | O95149+P62826 | Biochemical FRET Rango-importin beta, RanGTP-induced dissociation | Potency, µM (series often up to 46.1 µM), inactives show at the highest dose activity change, negative = inhibition | 340,000 compounds, 0.071% hits; active means falling FRET ratio curve, often poorly fitted, with flat reads before Ran was added; inconclusive means other falling curves, or compound fluorescence or quenching; inactive means flat or rising ratio curve;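 also: potency is read from the fitted curve at half-maximal effect; % of control where 0% means no effect; nearly all actives have a fitted effect of over 45% in size; -100% = wells without RanGTP and RCC1; the record marks most hits as doubtful in a second field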
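Compounds sat 5 min at room temperature with 0.1 uM Rango biosensor plus 0.25 uM importin beta, then FRET pre-read. RanGTP-RCC1 (0.6 uM Ran, 2mM GTP, 0.2 uM RCC1) added for 45 min, and the CFP/YFP post-read measured blocked complex dissociation.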
The depositor's hits bear a star; u = inconclusive; x = no result given. Some of the compounds tested, so the mix of outcomes need not match the whole.

SMILES | miR-21 reporter | GLA inh pH 4.5 | Rango complex inh | Rango release inh
Cc1cc2oc(C(=O)Nc3ccc(S(=O)(=O)N4CCCC(C)C4)cc3)cc(=O)c2cc1Cl (stereo not given) | -3.4% | -9.5 | -0.9% | 10.7%
O=S(=O)(NCc1cccnc1)c1cccn1-c1ncc(C(F)(F)F)cc1Cl | 7.1% | 5.9 | 4.7% | 16.3%
COc1cc(NC(=O)CCn2c(=S)oc3ccccc32)cc(OC)c1OC | -0.8% | x | 1.1% | 5.8%
COCCn1c(=NC(=O)/C=C/c2ccccc2Cl)sc2cc(NC(C)=O)ccc21 | -1.7% | 1.0 | -3.0% | 7.1%
Cc1cccc(NC(=O)NCC2CC2)c1 | -30.2% | x | -0.2% | -9.1%
COc1cccc(C(=O)Nc2cc(NC(=O)c3cccs3)ccc2C)c1OC | 4.7% | x | -1.7% | 4.4%
COc1cc(CN2CCN(CCOCCO)CC2)cc(OC)c1OC | -0.5% | 0.3 | -0.6% | 8.3%
O=C(NCC1CCCO1)c1ccc2c(=O)n(-c3ccccc3)c(=S)[nH]c2c1 (stereo not given) | 1.3% | 6.1 | -1.0% | -9.3%
FC(F)(F)c1cc(N2CCN(Cc3ccccc3)CC2)c2ccccc2n1 | 5.6% | -3.2 | -1.0% | -5.9%
CCCN(CCC)C(=O)CSc1nc2ccccc2c(=O)n1C1CCCC1 | 8.2% | -10.0 | -5.8% | 19.2%
CCOc1ccc(Br)cc1S(=O)(=O)N1CCC(C(=O)O)CC1 | 0.2% | 4.8 | -2.1% | 8.6%
Cc1ccc(N(CC(=O)N/N=C/c2ccc(OC3CSC3)cc2)S(=O)(=O)c2ccccc2)c(C)c1 | -12.2% | -2.5 | u | 6.3%
Cc1nnc(NC(=O)CSc2nnc(CC(=O)Nc3ccccc3C)n2C)s1 | 6.9% | x | 2.3% | -2.1%
Cc1cc(=O)[nH]c2c(C)c(Cl)ccc12 | 2.8% | 0.7 | x | x
COc1cc(OC)cc(C(=O)N/N=C\c2ccoc2)c1 | 17.5% | x | -4.1% | 3.9%
O=C(CNC(=O)c1ccc(N2C(=O)c3ccccc3C2=O)cc1)OCC(=O)c1cccc2ccccc12 | -3.4% | 0.5 | 3.6% | 1.9%
N#CC1=C(N)Oc2cc(N)ccc2C1c1ccccc1 (stereo not given) | x | x | u | u
O=C(c1cccnc1)N1N=C(c2cccs2)CC1c1ccc(F)cc1 (stereo not given) | -12.9% | -2.7 | -2.5% | 0.6%
COc1ccc(OCc2nn3c(-c4cccc(OC)c4)nnc3s2)cc1 | -2.7% | -6.4 | 3.1% | 14.3%
O=[N+]([O-])c1ccc(-c2nc3ccc([N+](=O)[O-])cc3[nH]2)cc1 | -38.5% | -12.3 | -0.5% | -1.4%

Another view of 4 compounds above:
Structure,miR-21 reporter,GLA inh pH 4.5,Rango complex inh,Rango release inh
COCCn1c(=NC(=O)/C=C/c2ccccc2Cl)sc2cc(NC(C)=O)ccc21,-1.7%,1.0,-3.0%,7.1%
N#CC1=C(N)Oc2cc(N)ccc2C1c1ccccc1 (stereo not given),x,x,u,u
O=C(NCC1CCCO1)c1ccc2c(=O)n(-c3ccccc3)c(=S)[nH]c2c1 (stereo not given),1.3%,6.1,-1.0%,-9.3%
COc1cc(OC)cc(C(=O)N/N=C\c2ccoc2)c1,17.5%,x,-4.1%,3.9%

Later entries:
SMILES | miR-21 reporter | GLA inh pH 4.5 | Rango complex inh | Rango release inh
Nn1c(SCC(=O)NC2CCCCC2)nnc1-c1ccco1 | x | x | -0.7% | -6.7%
O=C1CSC2=NCN(c3ccc4c(c3)OCO4)CN12 | -37.6% | 5.7 | 2.8% | -7.4%
CCOC(=O)c1sc(N)c(C(=O)Nc2ccccc2)c1C | -57.4% | -8.7 | 1.4% | -21.5%
Cc1cccc(OCC(=O)NC(=S)Nc2ccccc2N2CCOCC2)c1C | 1.4% | x | 2.9% | 10.8%
CC(=O)Nc1cccc(NC(=S)Nc2ccc(F)cc2F)c1 | -13.8% | -0.6 | 1.5% | -8.8%
COc1ccc(NC(=O)CN2C(=O)NC(C)(c3ccccc3)C2=O)c(OC)c1 (stereo not given) | -0.1% | x | 7.7% | 1.0%
COC(=O)c1ccc(-n2c(C)cc(/C=N/n3cnnc3)c2C)cc1 | 0.2% | -2.4 | -2.7% | 0.0%
NC(=O)CCCn1c(C(=O)c2ccc(Cl)cc2)c2ccc([N+](=O)[O-])cc2[n+]1[O-] | x | x | -1.4% | 1.1%
CCOc1ccccc1CNc1ncnc2ccc(-c3c(C)noc3C)cc12 | x | x | 0.4% | -16.7%
COc1cc(S(=O)(=O)N2CCOCC2)ccc1F | -4.3% | 4.4 | 1.5% | 10.8%
COC(=O)c1cn(NC(=O)c2ccccc2[N+](=O)[O-])c(=O)c2ccccc12 | -1.8% | -8.7 | 0.3% | -7.9%
CCN(CC)S(=O)(=O)c1ccc2c(c1)N(CC(=O)Nc1ccc(NC(C)=O)cc1)C(=O)CO2 | -0.4% | x | -0.4% | -3.7%
COc1ccc(NC(=O)NC2CCCCCCC2)c(OC)c1 | -40.3% | x | -0.8% | -16.2%
CCOC(=O)C1=C(CN2c3ccccc3CC2C)NC(=O)NC1c1ccccc1 (stereo not given) | -0.9% | 7.6 | u | -33.8%
CCc1ccc(NC(=O)CC2C(=O)Nc3c2c(=O)n(C)c(=O)n3C)cc1 (stereo not given) | -9.0% | -2.4 | -1.9% | 11.2%
Cc1nnc2sc(COc3ccccc3)nn2c1=O | -1.2% | x | -0.7% | 11.1%
CCN(CCO)Cc1cc(=O)oc2c(C)c(C)ccc12 | -19.7% | -0.8 | -1.3% | 2.9%
COCCOC(=O)c1c(C)n(C)c2ccc(OC(=O)c3ccccc3F)cc12 | -12.0% | x | -2.0% | -5.6%
COC(=O)c1cc(S(=O)(=O)N2CCCCC2C)c[nH]1 (stereo not given) | -1.9% | x | 0.9% | 0.8%
Cc1cc(NC(=O)c2cccc3ccccc23)cc(C)c1OCC(=O)N1CCOCC1 | -5.7% | 1.7 | -0.6% | 4.4%

4 compounds out of the list, sorted by heavy-atom count, high to low.
SMILES | miR-21 reporter | GLA inh pH 4.5 | Rango complex inh | Rango release inh
CCN(CC)S(=O)(=O)c1ccc2c(c1)N(CC(=O)Nc1ccc(NC(C)=O)cc1)C(=O)CO2 | -0.4% | x | -0.4% | -3.7%
COC(=O)c1cn(NC(=O)c2ccccc2[N+](=O)[O-])c(=O)c2ccccc12 | -1.8% | -8.7 | 0.3% | -7.9%
CC(=O)Nc1cccc(NC(=S)Nc2ccc(F)cc2F)c1 | -13.8% | -0.6 | 1.5% | -8.8%
O=C1CSC2=NCN(c3ccc4c(c3)OCO4)CN12 | -37.6% | 5.7 | 2.8% | -7.4%

Going on with the list:
SMILES | miR-21 reporter | GLA inh pH 4.5 | Rango complex inh | Rango release inh
NC(=O)c1ccccc1NC(=O)CC1(CC(=O)O)CCCC1 | -1.7% | x | 3.3% | -11.4%
O=C(Oc1oc(-c2ccco2)nc1C=Nc1ccc(Cl)cc1)c1ccco1 | -36.5% | 3.6 | -6.5% | -16.8%
Cc1ccccc1NC(=O)C1CCCN1/C=C/C(=O)C(F)(F)F (stereo not given) | -3.3% | -0.2 | 0.9% | -8.7%
CC(C)(C)C(C(Oc1ccc(Cl)cc1)n1cncn1)n1nnnc1C(c1cccc(Cl)c1)N1CCCCC1 (stereo not given) | u | -8.0 | x | x
CN(C)S(=O)(=O)c1cccc(NC(=O)C(c2ccccc2)c2ccccc2)c1 | -0.3% | x | -1.3% | 14.5%
CC(C)Cn1nc(C(=O)NCc2ccccc2CN2CCCC2)c2ccccc2c1=O | x | x | 1.9% | -9.3%
COc1ccc(-n2c(=S)[nH]c3cc(C(=O)NCCCN4CCOCC4)ccc3c2=O)c(OC)c1 | 2.1% | 5.8 | -3.6% | 1.5%
O=C(N/N=C/C(Br)=C\c1ccccc1)c1cccs1 | -53.4% | 3.4 | 1.7% | 0.9%
COc1ccc(CNCC(O)(c2ccccc2)c2ccc(Cl)cc2)cc1 (stereo not given) | 9.6% | -12.5 | 1.4% | -25.3%
CN(C(=O)CSc1nnc(-c2cccs2)n1C1CC1)C1CCS(=O)(=O)C1 (stereo not given) | x | x | 2.5% | 11.4%
COc1cccc(NC(=O)CN(C)C(=O)/C=C/c2cn(-c3ccccc3)nc2-c2ccc(C)cc2)c1 | x | x | -2.4% | u
N=c1c(S(=O)(=O)c2ccc(Br)cc2)cc2c(=O)n3ccccc3nc2n1C1CCCCC1 | -6.2% | x | u | -0.8%
O=C(O)c1ccc(CSc2nnnn2-c2ccc(F)cc2)cc1 | -4.0% | x | -0.6% | 15.1%
COC(=O)c1ccc(-c2noc(CN(Cc3ccncc3)CC3CCCO3)n2)cc1 (stereo not given) | u | 0.9 | 4.8% | 2.2%
COCC1CCN(c2nc3nonc3nc2N2CCSCC2)C1 (stereo not given) | -0.4% | -7.6 | -1.6% | -21.6%
O=C(COC(=O)c1ccc(S(=O)(=O)C(F)F)cc1)Nc1cccnc1Cl | x | x | -5.9% | 3.7%
CCC(C)c1ccc(NC(=O)N2CCOCC2)cc1 (stereo not given) | -37.3% | x | -0.3% | -5.2%
COc1ccc(C(=O)OCC(=O)Nc2c(C)n(C)n(-c3ccccc3)c2=O)cc1OC | x | x | 3.9% | -0.4%
COc1ccc(C2CC(c3cccc(Cl)c3)n3nc(N)nc3N2)cc1 (stereo not given) | -11.9% | 3.8 | -0.8% | -1.6%
CCCNC(=O)CCc1c(C)nc2c(c(C)nn2-c2ccc(C)cc2)c1C | 0.3% | x | 0.5% | -4.2%
Cn1cccc1C(=O)NCc1ccc(Cl)cc1 | -9.2% | x | 3.7% | 19.6%
COc1ccc(S(=O)(=O)N(CC(=O)N2CCOCC2)Cc2ccccc2)cc1C | -4.3% | 8.0 | -0.4% | 1.3%
O=C(CSc1nnc(COc2cccc3ccccc23)o1)N1c2ccccc2CCc2ccccc21 | -3.8% | 0.4 | -2.1% | 24.1%
O=C(NCc1cccs1)C1CCC(=O)N(Cc2cccc(C(F)(F)F)c2)C1 (stereo not given) | -0.5% | x | 2.0% | -4.7%
Cc1ccc(-n2c(SCC(=O)NCc3ccco3)nc3c(sc4ccccc43)c2=O)cc1 | -5.0% | 4.6 | 0.2% | 1.6%
CCn1c(SCc2nc(-c3ccc(Cl)cc3)no2)nnc1-c1ccco1 | -1.0% | -1.9 | 0.1% | 0.3%
CCCS(=O)(=O)N1CCN(Cc2ccccc2[N+](=O)[O-])CC1 | -3.2% | 10.9 | -2.0% | -1.2%
CCn1c(NC(=O)c2ccc(C)cc2)c2ccccc2nc1=O | 2.0% | 6.8 | 4.7% | 4.7%
Cc1ccc(C2CC(=O)N(c3ccc(F)cc3)C3=C2C(=O)CCC3)cc1 (stereo not given) | 0.2% | -1.6 | 0.5% | 0.5%
CCOC(=O)c1ccccc1Cc1nc2ccccc2c(=O)[nH]1 | -0.5% | 1.2 | 0.2% | -5.0%
CN(Cc1ccccc1Cl)C(=O)CCNC(=O)c1ccco1 | x | x | -0.3% | 0.5%
COc1ccc(NC(=O)CS(=O)(=O)c2ccc(C)cc2)c(OC)c1 | 11.1% | x | 4.0% | 17.3%
CCOc1ccc(NC(=O)CN(C)C(=O)C2CCN(C(=O)Nc3ccccc3)CC2)cc1OCC | x | x | -1.9% | -9.1%
COC(=O)Nc1nnc(CCc2ccccc2)s1 | -14.4% | -1.8 | -0.9% | 0.6%
Cc1ccc(C)c(N2CCN(C(=O)CN(C)S(=O)(=O)c3cnc[nH]3)CC2)c1 | -0.1% | 7.5 | 2.6% | 2.2%
CCN(CC(=O)NC1CC1)S(=O)(=O)c1ccc(OC)cc1 | 2.6% | x | -0.5% | 5.9%
CCC(C)c1ccc(N(CC(=O)NC(C)(C)C)C(=O)CNC(=O)c2cccs2)cc1 (stereo not given) | 2.9% | x | -0.1% | 2.0%
COc1ccc(N(CC(=O)NC2CCCCCC2)S(=O)(=O)c2ccc(C)cc2)cc1OC | 0.8% | x | 3.1% | 7.8%
CCCC(C(=O)NC1CCCC1)N(CC1CCCO1)C(=O)CNS(=O)(=O)c1ccccc1 (stereo not given) | -1.2% | x | 1.1% | 4.0%
CCCCCCn1c(N2CCC(C(N)=O)CC2)nc2c1c(=O)n(C)c(=O)n2C | -5.3% | -8.4 | 2.7% | -1.6%
